# Beta cell apopt = blocks beta cell apoptosis; protection from apoptosis, % (concentration not given with the values); hit rate 0.8% among 300,000; AID 435005; INS-1E cytokine-induced death, ATP luminescence, 48 h; percent of positive-control rescue, neutral wells zero;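 active = all replicates at 75% or more, or half of them and the mean; inconclusive = half reach 75% but not the mean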;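 note: 0% = cytokine-treated negative control wells and 100% = positive control rescue; higher means more ATP so stronger rescue from cytokine killing; wells of about 40 µL received 100 nL stock; the first replicate is given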
# T cruzi inh = blocks replication of Trypanosoma cruzi | T. cruzi beta-gal in NIH3T3, luminescence, 90 h | inhibition, % (no concentration beside the values) | hit rate 1.4% among 300,000 | AID 1885;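 active = mean inhibition across valid replicates above about 55%, limit read from the data; inconclusive = mean below that limit but half or more replicates reach it; inactive = mean below it, under half of replicates reach it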;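 note: signal also drops with host cell toxicity which is not excluded here; 0% = plate median of DMSO wells and 100% = zero luminescence signal; higher percent means less beta-gal luminescence so fewer parasites; stock transfer was 50 nL into about 50 µL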
# Calb FLC = C. albicans growth modulation with fluconazole; C. albicans CaCi-2 (fluconazole-resistant clinical isolate) + fluconazole, Alamar Blue growth, 48 h; growth inhibition, % (concentration not given with the values); hit rate 0.57% among 300,000; AID 1979;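 active = most replicates above 75%; inconclusive = exactly half above 75%; inactive = most below 75%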;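 note: all wells also contain fluconazole at 8 µg/ml as a sub-toxic cotreatment; 0% = median of DMSO wells and 100% = median of geldanamycin control wells; wells of about 8 µL received 7.5 nL stock; the first replicate is given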
# rRNA inh HTS = inhibitors of bacterial rRNA selective over humanized ribosomes; GFP signal change (wild-type ribosome), % (no concentration beside the values); AID 720706; E. coli WT GFP vs humanized-ribosome RFP mutants, fluorescence, 24 h; stronger effect = lower value; DMSO median 0, no signal -100; hit rate 1.6% among 350,000;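 active = significant combined selectivity score with lowered wild-type GFP, culture density cut under 30%, mutant RFP and density less affected; inactive = any of these conditions unmet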; note: one replicate is shown; some compounds called inactive have numbers as strong as hits
# Bfl-1 A1 inh = inhibitors of the anti-apoptotic protein A1, read as caspase activation; MEF A1-2A-BIM cells, Caspase-Glo 3/7 luminescence, 3 h; percent of clofoctol response, vehicle zero; caspase activation, % (no concentration beside the values); hit rate 0.066% among 330,000; AID 2462;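 active = over half of replicate activation scores above 10%, or exactly half above 10 with the replicate mean above 10; inconclusive = replicate mean below 10 yet half the replicates above 10; inactive = over half of replicates below 10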;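 note: wells of about 30 µL received 50 nL stock; many hits fall short of the cut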
# B2AR ag = activates human beta-2 adrenergic receptor causing internalization | P07550 | Am2.2-beta2AR cells, FAP receptor internalization, flow cytometry; reference of the scale not given here | response, % (test concentration not listed) | hit rate 0.43% among 340,000;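 active = response above a set limit, near 3 SD of response in nonfluorescent compounds, cut at about 42% in these data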;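 note: stock transfer was 100 nL into about 11 µL; a reference agonist was the positive control; negative values mostly stem from fluorescent compounds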
# LANA-H2A inh = blocks KSHV LANA binding to histone H2A/H2B; inhibition, % (no concentration beside the values); AID 2629; hit rate 0.6% among 320,000; cell-free LANA-H2A/H2B peptide, fluorescence polarization; in the data active = inhibition mostly above about 10%, no sharp cut-off; inactive = mostly below about 6.7%;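 note: stock transfer was 7.5 nL into about 10 µL; 0% = median of vehicle wells and 100% = median of positive control wells; one replicate is shown; the record names a cut of 25% in any replicate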
# Target sequence (Q9QR71 whole entry, looked up): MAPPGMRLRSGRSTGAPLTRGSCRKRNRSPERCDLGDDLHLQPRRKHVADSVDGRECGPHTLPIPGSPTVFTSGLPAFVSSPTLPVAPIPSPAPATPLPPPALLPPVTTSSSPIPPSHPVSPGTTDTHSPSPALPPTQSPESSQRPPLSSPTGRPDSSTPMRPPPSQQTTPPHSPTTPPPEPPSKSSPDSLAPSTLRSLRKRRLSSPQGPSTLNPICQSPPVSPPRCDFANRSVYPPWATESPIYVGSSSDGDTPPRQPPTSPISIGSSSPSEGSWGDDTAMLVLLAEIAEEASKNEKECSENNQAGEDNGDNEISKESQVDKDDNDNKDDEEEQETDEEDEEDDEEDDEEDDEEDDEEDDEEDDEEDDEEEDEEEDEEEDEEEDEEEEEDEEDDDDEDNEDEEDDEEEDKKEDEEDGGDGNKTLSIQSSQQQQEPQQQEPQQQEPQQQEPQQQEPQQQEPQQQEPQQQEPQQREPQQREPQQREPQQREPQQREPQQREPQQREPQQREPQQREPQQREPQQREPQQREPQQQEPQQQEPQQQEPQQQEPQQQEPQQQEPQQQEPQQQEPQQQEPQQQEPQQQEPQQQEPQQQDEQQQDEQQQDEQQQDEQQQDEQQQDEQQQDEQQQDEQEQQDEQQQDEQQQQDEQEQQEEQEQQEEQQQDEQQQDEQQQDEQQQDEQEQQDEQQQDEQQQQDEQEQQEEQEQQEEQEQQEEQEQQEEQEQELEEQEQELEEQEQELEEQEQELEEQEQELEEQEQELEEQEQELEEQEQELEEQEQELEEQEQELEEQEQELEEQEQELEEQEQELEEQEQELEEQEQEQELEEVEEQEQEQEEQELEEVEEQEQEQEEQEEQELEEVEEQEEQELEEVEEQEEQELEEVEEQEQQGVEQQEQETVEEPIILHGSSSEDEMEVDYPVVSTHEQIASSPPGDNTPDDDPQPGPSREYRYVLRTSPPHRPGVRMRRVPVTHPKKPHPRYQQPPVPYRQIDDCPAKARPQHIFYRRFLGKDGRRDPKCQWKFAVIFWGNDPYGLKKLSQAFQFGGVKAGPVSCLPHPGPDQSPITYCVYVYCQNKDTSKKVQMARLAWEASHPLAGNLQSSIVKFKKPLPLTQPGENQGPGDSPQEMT
# ALR inh = blocks human ALR sulfhydryl oxidase activity; P55789; hit rate 3.8% among 290,000; inhibition, % (test concentration not listed); AID 485317; purified ALR, DTT oxidation, H2O2 HRP-luminol luminescence;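 active = mean and each replicate at 75% or more; inconclusive = only one of the two met; inactive = neither met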;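 note: stock transfer was 7.5 nL into about 7.5 µL; 0% = neutral wells and 100% = wells with inactivated enzyme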
# rRNA inh HTS OD600 = second read-out of rRNA inh HTS, no call of its own (marks repeat the call); OD600 change, %; measured here: OD600 growth;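 optical density of the mix in the first replicate; 0 = DMSO median and -100 = no signal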
# rRNA inh HTS RFP = further read-out of rRNA inh HTS, marked with its call; RFP signal change, %; measured here: RFP humanized mutant strains;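 first replicate; 0 = DMSO median and -100 = no signal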
# Numbers without * were called inactive; ? = inconclusive; / = no result given; & = joins results of further samples.
Structure	T cruzi inh	rRNA inh HTS RFP	Bfl-1 A1 inh	B2AR ag	rRNA inh HTS OD600	Beta cell apopt	rRNA inh HTS	Calb FLC	ALR inh	LANA-H2A inh
COC(=O)c1sc(N2C(=O)C(O)=C(C(=O)c3ccc(C)o3)C2c2ccc(OC)c(OC)c2)nc1C (centres undefined)	3.3	2.3	0.7	3.0	-3.2	0.4	-3.9	63.9	61.3	-5.3
CCOC(=O)C1CCCN(S(=O)(=O)Cc2ccccc2)C1 (centres undefined)	-18.3	-1.1	1.1	7.5	5.6	-0.4	5.8	-7.9	-4.0	-0.5
CCOC(=S)SCc1cn2ccccc2n1	-35.0	5.5	0.0	-8.2	2.6	4.9	12.3	-29.7	97.8*	-0.3
CCOc1ccc(-n2c(N)c(C(=O)NCc3ccco3)sc2=S)cc1	5.5	/	0.1	-7.1	/	1.8	/	1.5	-16.3	1.2
Cc1ccc(C2CC(=O)NC(SCc3ccccc3)=C2C#N)o1 (centres undefined)	3.6	-14.8	-0.3	39.5	-77.4	/	-47.0	-7.4	13.3	3.0
COc1ccc(S(=O)(=O)N2CCC(C(=O)N3CCC(C(N)=O)CC3)CC2)cc1Cl	-3.6	0.9	0.7	-1.4	6.6	-3.8	3.0	-17.6	-6.1	-1.1
CN1CCN(c2nc3c(c(=O)[nH]c(=O)n3C)n2Cc2cccc3ccccc23)CC1	9.9	-7.7	2.1	3.9	6.5	2.1	13.4	-5.4	0.6	-6.1
CC(=O)Nc1ccc(N2Cc3ccccc3C2)cc1	-6.2	-0.3	-1.8	21.5	1.3	/	-2.1	15.6	-18.0	0.7
CCOC(=O)[C@@H](C)NS(=O)(=O)N(Cc1ccccc1)[C@H](C(=O)OC)C(C)C	/	-1.9	-1.8	0.7	-3.6	-0.6	-4.3	/	-6.3	-7.0
Cc1ccc(N2CCN(c3ccc([N+](=O)[O-])cn3)CC2)c(C)c1	12.5	7.1	0.7	0.6	11.2	-0.6	20.9	13.4	0.4	-5.8

# Another view of some results above:
> CCOC(=S)SCc1cn2ccccc2n1
  T cruzi inh = -35.0 | rRNA inh HTS RFP = 5.5 | Bfl-1 A1 inh = 0.0 | B2AR ag = -8.2 | rRNA inh HTS OD600 = 2.6 | Beta cell apopt = 4.9 | rRNA inh HTS = 12.3 | Calb FLC = -29.7 | ALR inh = 97.8* | LANA-H2A inh = -0.3

> CCOc1ccc(-n2c(N)c(C(=O)NCc3ccco3)sc2=S)cc1
  T cruzi inh = 5.5 | rRNA inh HTS RFP = / | Bfl-1 A1 inh = 0.1 | B2AR ag = -7.1 | rRNA inh HTS OD600 = / | Beta cell apopt = 1.8 | rRNA inh HTS = / | Calb FLC = 1.5 | ALR inh = -16.3 | LANA-H2A inh = 1.2

> Cc1ccc(C2CC(=O)NC(SCc3ccccc3)=C2C#N)o1 (centres undefined)
  T cruzi inh = 3.6 | rRNA inh HTS RFP = -14.8 | Bfl-1 A1 inh = -0.3 | B2AR ag = 39.5 | rRNA inh HTS OD600 = -77.4 | Beta cell apopt = / | rRNA inh HTS = -47.0 | Calb FLC = -7.4 | ALR inh = 13.3 | LANA-H2A inh = 3.0

# Carrying on:
Structure	T cruzi inh	rRNA inh HTS RFP	Bfl-1 A1 inh	B2AR ag	rRNA inh HTS OD600	Beta cell apopt	rRNA inh HTS	Calb FLC	ALR inh	LANA-H2A inh
CCC(=O)Nc1ccc(C(=O)Nc2c[nH]c(=O)[nH]c2=O)cc1	-3.0	3.4	-0.8	-3.0	13.2	0.3	10.4	?	-1.6	-1.3
CNCc1cc(Br)c(OCC(=O)Nc2ccccc2OC)c(OC)c1	32.2	-1.2	0.0	4.7	-14.1	2.3	-11.3	-25.5	-3.5	-1.5
O=C(CCNC(=O)c1ccco1)Nc1ccccc1N1CCOCC1	0.6	2.1	0.6	-3.3	9.2	-5.4	9.9	4.9	5.0	-0.1
O=C(O)c1cc(Cl)nc2ccccc12	-5.1	-8.5	-0.6	-0.2	2.0	-1.6	6.5	3.3	-4.5	1.6
CCCCCC(=O)N1CCN(CCN=CC2=C(O)CC(c3cccs3)CC2=O)CC1 (centres undefined)	-9.3	-0.6	-0.6	-4.2&0.2	11.2	-8.6	5.8	11.4	-6.5	-3.6
COc1cc(NC(=O)CCc2ccccc2)nc(OC)n1	-20.0	/	-1.5	6.1	/	-5.2	/	?	23.4	3.8
CCCc1nnc(NC(=O)CCC(=O)NCc2ccc(Cl)cc2Cl)s1	-13.2	1.8	-1.3	2.7	9.8	0.4	10.7	2.1	/	0.7
Cc1cc(C)c(OCCOCCN(C)C)c(Br)c1	42.2	0.7	0.3	5.0	9.2	3.5	11.8	-4.6	-2.9	-0.2
O=C(c1ccccc1O)N1N=C(C(F)(F)F)CC1(O)c1ccc([N+](=O)[O-])cc1 (centres undefined)	-15.8	-4.2	1.0	8.0	-29.0	1.8	-18.9	-14.5	0.0	-1.3
CCCCNC(=O)CCCCCNS(=O)(=O)c1ccc(OC)cc1	-7.3	/	0.5	5.5	/	-2.6	/	10.9	-1.6	2.4
COc1ccc(C(c2c(C)n(C)n(-c3ccccc3)c2=O)c2c(C)n(C)n(-c3ccccc3)c2=O)c(OC)c1OC	2.1	3.2	-0.2	-4.3	14.0	0.7	20.5	12.9	/	1.7
O=C(CCn1c(=S)[nH]c2ccccc2c1=O)NCCCN1CCCC1=O	-13.3	/	0.0	3.8	/	-4.0	/	-4.9	72.6	5.1
CCC1(CC)NC(=O)N(CC(=O)Nc2ccc(-n3cnnn3)cc2)C1=O	/	-0.1	0.0	3.0	10.3	2.4	7.4	/	-4.5	5.0
COc1cccc(CNc2nn[nH]n2)c1OC	-5.7	/	-0.8	3.9	/	-5.7	/	6.7	/	1.7
CC(=O)c1ccc(NC2OC(CO)C(O)C(O)C2O)cc1 (centres undefined)	-4.3	/	0.0	-1.8	/	-4.8	/	0.6	/	2.3
O=C1OC(c2ccc(Br)cc2)=N/C1=C\N1CCCCC1	0.7	/	-0.5	-3.8	/	8.9	/	4.3	-2.6	-0.9
COC(=O)C1=C(CSc2nc3ccccc3o2)NC(=O)NC1c1cc(C)ccc1C (centres undefined)	22.6	/	1.6	-12.1	/	-3.1	/	3.1	-1.5	4.1
C/C(=C\c1ccc2c(c1)OCO2)C(=O)c1c(C)cc(C)[nH]c1=O	-10.5	-7.1	-0.4	-0.6	-9.2	2.1	9.2	5.4	3.5	-11.1
CC(=O)OCC1OC(OC(C)=O)C(NC(=O)c2cccnc2)C(OC(C)=O)C1OC(C)=O (centres undefined)	-2.7	0.9	0.3	5.9	9.4	2.2	8.2	-4.5	/	/
CN(CC(=O)Nc1ccccc1C(F)(F)F)C(=O)C1CCN(C(=O)c2ccc(Cl)cc2)CC1	-7.2	-1.8	0.4	11.1	4.6	-0.7	0.6	6.4	-4.7	-2.0
Cc1cccc(C(=O)NCc2nnc(SCC(=O)N3CCN(c4ccccc4)CC3)n2C)c1	-8.4	/	0.4	-5.6	/	3.2	/	-4.6	5.3	3.2
O=C(NNC(=O)c1ccccc1[N+](=O)[O-])c1ccccn1	-8.7	-4.7	0.5	-3.5	0.4	-0.8	2.9	-2.4	0.1	2.6
N#Cc1nc(-c2ccccc2F)oc1NC1CCCCC1	8.2	0.0	-0.6	-10.6	-20.1	6.3	-14.9	-7.5	12.6	-3.5
CCOc1ccccc1NC(=O)NNS(=O)(=O)c1cc(OC)ccc1OC	-16.7	1.6	?	8.8	-6.1	-2.6	-7.3	-4.3	27.0	-1.8
CN(C)CCCN1C(=O)CSC1c1ccc([N+](=O)[O-])cc1 (centres undefined)	22.4	0.3	0.1	-5.6	6.5	-4.0	14.8	-0.2	/	-2.9
Cc1cccnc1NCc1ccc(O)c2ncccc12	46.9	/	0.4	-8.2	/	/	/	-26.8	1.8	-4.8
Cc1nc2nc(SCC(=O)NCCCN3CCCCC3)nn2c(C)c1Cc1ccccc1	-0.9	0.2	-0.2	-14.6	-5.1	-2.5	-0.4	-7.6	-1.8	-16.4
Oc1c(C(Nc2cccc(C(F)(F)F)c2)c2ccncc2)ccc2cccnc12 (centres undefined)	78.6*	-29.2	-1.1	4.1	-71.1	78.8*	-49.5	92.7*	/	/
COc1cc(C(O)c2nc3ccccc3n2C(C)C)cc(OC)c1OC (centres undefined)	4.9	4.1	0.6	-29.9	12.1	-4.5	8.8	-11.0	-4.8	-3.3
COc1ccccc1C(=O)NNC1=C(C(=O)C(F)(F)F)CCC1	-9.2	2.5	-0.6	-9.1	12.0	10.0	11.0	10.9	10.7	-8.3
O=C(Nc1nnc(C2CC2)s1)C1COc2ccccc2O1 (centres undefined)	3.0	/	-2.9	1.1	/	-2.2	/	25.9	-5.9	-7.1
Cc1ccc(C)c(NC(=O)CSc2nc3c(c(=O)n2C)SC(C)C3)c1 (centres undefined)	-0.9	1.1	2.0	-3.7	8.4	/	3.8	-2.7	47.7	1.4
CCCCN1C(=O)c2ccccc2C1C(=O)NC1CCCC1 (centres undefined)	20.5	/	1.3	6.4	/	0.3	/	-1.1	-6.5	-1.2
O=C(O)Cc1ccc(NC(=O)c2ccc(NC(=O)c3ccco3)cc2)cc1	3.3	/	-0.2	-5.3	/	-2.1	/	0.8	1.6	-3.9
CCOC(=O)CSc1nnc2n1C(C)(C)Cc1ccccc1-2	7.5	/	-0.7	-3.8	/	-0.4	/	-15.4	2.7	1.5
CCn1ncc(S(=O)(=O)Nc2cccnc2)c1C	-15.2	0.1	1.1	0.6	5.9	-20.0	2.6	1.1	-7.8	-5.6
CCCCc1c(O)nc(SCC(=O)N2CCCCC2)n(-c2ccccc2C)c1=O	26.4	/	0.1	-4.5	/	5.4	/	2.5	12.2	0.6
CC(=O)Nc1cccc(NC(=O)CS(=O)(=O)c2cn(CC(=O)N3CCOCC3)c3ccccc23)c1	-12.6	1.1	0.1	-0.6	4.4	-0.1	11.6	6.0	-6.9	-1.9
COC(=O)c1cccc(NC(=O)Cc2ccc(OC)cc2)c1C	-13.1	/	0.7	0.3	/	-7.6	/	-4.8	-8.3	-2.4
Cn1cc([N+](=O)[O-])c(C(=O)NC2CCCCCCC2)n1	-8.1	0.4	0.7	-15.3	10.9	/	2.9	11.8	-3.9	-0.4
COc1ccc(S(=O)(=O)c2snnc2C)cc1	4.3	0.2	0.4	-0.6	0.5	/	9.0	-1.9	/	-5.4
COC(=O)C(Cc1ccc(O)cc1)NC(=O)CCc1nc2ccccc2s1 (centres undefined)	-11.6	-3.4	-0.1	7.1	-0.9	-0.8	2.0	-11.6	36.8	6.8
COc1ccc(CC(=O)N2CCc3ccccc3C2)cc1	-2.6	4.1	0.0	22.7	8.0	-5.5	2.4	-4.6	1.4	2.6

# High-throughput results (PubChem)

# Only part of the results is shown, so the mix of outcomes need not match the whole.
